# Vaccinia Venus – inhibitors of vaccinia virus (Venus reporter). actives 0.46% (n = 330,000). Potency, µM (doses to about 36.5 µM), for the others: at the top dose activity change, negative = inhibition, usual class: inhibitors. Vaccinia virus Venus reporter expression, fluorescence; active means well fitted inhibition curve with a large enough effect; inconclusive means small, poorly fitted or top-dose-only effect; inactive means no such curve, though single readings can be large or run the other way; tested in A549 cells; note: nearly all actives have a fitted effect of over 30% in size; inactives centre near -10
# VACV mCherry inh – inhibitors of vaccinia virus infection (mCherry reporter signal); Potency, µM (top dose mostly 36.5 µM), without a hit: top-dose activity change, negative = inhibition, hits mostly inhibitors; AID 720579; Vaccinia virus mCherry reporter infection, fluorescence; about a quarter of the inactives have no number; actives 0.63% (n = 310,000); active = well fitted inhibition curve with a large enough effect; inconclusive = small, poorly fitted or top-dose-only effect; inactive = no such curve, though single readings can be large or run the other way; tested in A549 cells; note: nearly all actives have a fitted effect of over 35% in size; inactives centre near -10
# * hit, by the source's call; i = inactive; ? = inconclusive; . = not tested or not shown; & = joins results of further samples. % is set by controls: 0 for no effect and ±100 for the full control effect; potency is the fitted concentration of half-maximal effect.
SMILES,Vaccinia Venus,VACV mCherry inh
CC1(C)C(=O)C2C[C@]3(O)C4=CC(=O)OC(c5ccoc5)[C@]4(C)CCC3[C@](C)(C2=O)C1CC(=O)O (some centres not stated),-2%,-7%
CC(C)(C)c1ccc(C(=O)NCC(=O)N2CCNC(=O)C2)cc1,8%,-6%
CCN(CC)C(=O)Cn1cc(C(=O)C(=O)N(CC)C2CCCCC2)c2ccccc21,-9%,-2%
COc1cc(CN2CCNC(=O)C2CC(=O)NCCCN2CCOCC2)cc(OC)c1 (configuration not stated),-8%,-2%
CCCc1nc2ccccc2n1C(=S)SC,-10%,-13%
Cc1nn(C(=O)c2ccccc2)c(C)c1S(=O)(=O)N1CCCCCC1,-19%,-14%
COc1ccc(CCNC(=O)C2CC(=O)N(C3CCCC3)C2)cc1OC (configuration not stated),0%,-6%
CC(=O)Nc1ccc(-n2c(C)nc(=O)c(-c3ccccc3)c2C)cc1,-12%,i
CC(=O)c1cc(C(=O)Nc2cccc(C)c2)c2ccccn12,-11%,-3%
COc1ccc(S(=O)(=O)N2CCC(NC(=O)c3cccnc3)CC2)cc1,10%,-24%
C(=C\c1ccccc1)/CN1CCN(C(c2ccccc2)c2nnnn2C2CCCC2)CC1 (configuration not stated),-2%,12%
O=C1OC(N2CCN(C(=O)c3ccco3)CC2)c2ccccc21 (configuration not stated),-2%,-9%
COc1ccccc1C1CN(Cc2ccc(Sc3nncn3C)o2)Cc2ccccc2O1 (configuration not stated),-7%,-13%
COc1ccc(N2CCN(C(=O)c3c(C)oc4ncn(CC(C)C)c(=O)c34)CC2)cc1,0%,i
CC1Cn2c(CCc3ccccc3)nnc2S1 (configuration not stated),-10%,-9%
Cn1c(=O)c2[nH]c(=O)[nH]c2n(C)c1=O,-6%,-4%
Cc1cc(C)n2nc(C(=O)OCC(=O)Nc3cc(S(=O)(=O)N4CCOCC4)ccc3Cl)nc2n1,-7%,-9%
CN(C)c1ccc(C(=S)Nc2ccccc2)cc1,-28%,?
Cc1ccc(C)c(C(C)NC(=S)NC2CCCCC2)c1 (configuration not stated),3%,-17%
CCc1ccccc1NC(=O)NC(CC)Cn1nnc2ccccc2c1=O (configuration not stated),0%,0%
Nc1oc2ccc(F)cc2c(=O)c1C=O,-19%,-4%
Cc1cccc(CCN2CCN=C2N(C)C)c1,5%,i
NC(=O)c1ccc(-c2nnn(CC(=O)N(C3CCCCC3)C3CCS(=O)(=O)C3)n2)cc1 (configuration not stated),-10%,-4%
COC(=O)c1ccc(NC(=O)c2cc(S(=O)(=O)N3CCOCC3)cn2C)cc1,-7%,-4%
COc1ccc2c(Sc3ccc(Cl)cc3)c(C(=O)NCCCN3CCCCC3)[nH]c2c1,-16%,-14%
CC(C)(O)/C=C/C(=O)[C@](C)(O)C1[C@H](O)C[C@@]2(C)C3CC=C4C(C=C(O[C@@H]5O[C@H](CO)[C@@H](O)[C@H](O)[C@H]5O)C(=O)C4(C)C)[C@]3(C)C(=O)C[C@]12C (some centres not stated),-22%,i
Cc1cccc(NC(=O)C2CCCN(S(=O)(=O)c3cnc[nH]3)C2)c1C (configuration not stated),?,-5%
CCOc1ccc(N2C(=O)CC(=O)NC2=O)cc1,3%,-12%
C=CCOc1ccc(C=Nc2cccc(Cl)c2)c(O)c1,-3%,-14%
Cc1ccccc1OCC(=O)Nc1c(C)ccc2nsnc12,-20%,-30%
Cc1nc(N2CCOCC2)nc(Oc2ccccc2F)c1[N+](=O)[O-],-20%,?
COC(=O)COc1ccc2c(-c3cccc([N+](=O)[O-])c3)cc(=O)oc2c1,5%,1%
O=c1nc2ccccc2c2n1CC(CN1CCN(Cc3ccccc3)CC1)N2 (configuration not stated),-3%,.
Cn1c(=O)c2c(nc(-n3ccnc3)n2Cc2ccc([N+](=O)[O-])cc2)n(C)c1=O,-4%,.
O=C(CCNc1ccc(Br)cc1)c1cccc([N+](=O)[O-])c1,-19%,-13%
COc1cccc(-c2cc3nc(NCCN4CCCC4)n(C)c(=O)c3s2)c1,-8%,-19%
O=C(NCCc1nc2ccccc2[nH]1)c1cc([N+](=O)[O-])cc([N+](=O)[O-])c1,-1%,i
O=C(Nc1cccnc1)C1CCCN(S(=O)(=O)c2ccccc2)C1 (configuration not stated),-8%,.
C=CC12CN(C)[C@@H]3C4CO[C@H](C[C@H]41)[C@]1(C(=O)Nc4ccccc41)[C@@H]32 (some centres not stated),-7%,-6%
CCCN1CCN(C(=O)c2cc(COc3ccc(F)cc3F)on2)CC1,-19%,-6%
CN(CCn1ccnc1)C(=O)CC1C(=O)NCCN1Cc1ccccc1C(F)(F)F (configuration not stated),-10%,-2%
COc1ccc(/C=C(\C#N)C(=O)NC2CCS(=O)(=O)C2)cc1OC (configuration not stated),-10%,-11%
CN(C(=O)COC(=O)c1cc([N+](=O)[O-])ccc1Cl)c1ccccc1,-2%,-15%
CN1CCN(CC(O)COc2ccc(C34CC5CC(CC(C5)C3)C4)cc2)CC1 (configuration not stated),-15%,-17%
CC(C)(CO)CN1CCC(n2nccc2NC(=O)C2CCOC2)CC1 (configuration not stated),-1%,i
Cc1ccccc1-c1ccc2c(c1)C1c3c(-c4ccccc4)nnn3-c3ccccc3C(=O)N1CC2 (configuration not stated),-13%,-6%
CCOc1ccc(N(CC(=O)Nc2cccc(N(C)S(C)(=O)=O)c2)S(=O)(=O)c2ccccc2)cc1,?,?
Cc1cc(C)n2nc(N)c(N=Nc3ccc(Cl)cc3)c2n1,-28%,-29%
O=C(Cn1nnc(-c2ccccc2F)n1)Nc1ccc2c(c1)OCCO2,-7%,11%
COc1cc(OC)cc(C(=O)OCC(=O)Nc2nnc(-c3ccccc3)o2)c1,-1%,-3%
Cc1ccc(S(=O)(=O)/C=C/C#N)cc1,-11%,i
Nc1nnc(/C=C/c2ccccc2Cl)s1,-4%,i
CC(C)(C)OC(=O)N1CCC(c2c(C(=O)N3CCC(c4ccccc4)C3)cnn2-c2cccc(Cl)c2)CC1 (configuration not stated),-8%,-23%
CCCc1nnc(NC(=O)COC(=O)c2cc(C)nc3ccccc23)s1,0%,i
O=C(COC(=O)c1ccc(Br)o1)Nc1ncc(Cl)cc1Cl,7%,i
CCOC(=O)C1CCCN(CCC(=O)Nc2ccc3c(c2)CCC3)C1 (configuration not stated),-2%,-4%
CCc1cccc(C)c1NC(=O)c1ccc2nc(N3CCOCC3)sc2c1,-8%,i
Cc1ccc2c(N)c(C)ccc2c1,-8%,.
Cc1ccc2oc(=O)c3cc(C(=O)NCCCN4CCCCCC4)sc3c2c1,-6%,3%
CCCn1c(C(CO)Nc2nc(-c3cccc(Br)c3)cs2)nc2ccccc21 (configuration not stated),?,?

# Looked up by structure from the entries so far (six):
SMILES,Vaccinia Venus,VACV mCherry inh
O=C(COC(=O)c1ccc(Br)o1)Nc1ncc(Cl)cc1Cl,7%,i
CCCc1nnc(NC(=O)COC(=O)c2cc(C)nc3ccccc23)s1,0%,i
Cc1ccc2oc(=O)c3cc(C(=O)NCCCN4CCCCCC4)sc3c2c1,-6%,3%
Cc1ccc(S(=O)(=O)/C=C/C#N)cc1,-11%,i
CCc1cccc(C)c1NC(=O)c1ccc2nc(N3CCOCC3)sc2c1,-8%,i
CCCn1c(C(CO)Nc2nc(-c3cccc(Br)c3)cs2)nc2ccccc21 (configuration not stated),?,?

# The list goes on.
SMILES,Vaccinia Venus,VACV mCherry inh
Cc1cc(NC(=O)CSc2nnc(NC(=O)C3CC(=O)N(c4ccccc4C)C3)s2)no1 (configuration not stated),-8%,-13%
Cc1ccc(S(=O)(=O)N2CCN(CC(=O)N/N=C/c3cc([N+](=O)[O-])ccc3Cl)CC2)cc1,?,?
Cc1ccc(S(=O)(=O)NC(CC(=O)N2CCOCC2)c2ccco2)cc1 (configuration not stated),-3%,-14%
CCNC(=O)COc1ccc(-c2ccccc2)cc1,-8%,-6%
COc1ccc(NC(=O)CN(C)C(=O)c2cc(-c3ccc(C)o3)nc3ccccc23)cc1,-4%,0%
CCn1c(C)c(P(c2ccccc2)c2ccccc2)[n+]2ccccc12,-17%,-19%
COc1ccc(CN2CCCC(Cn3cc(C(=O)N4CCCC4)nn3)C2)c(O)c1 (configuration not stated),-9%,-10%
NC(=O)c1ccsc1NC(=O)c1ccc2c(c1)CCCC2,?,-28%
CCOC(=O)C1=CN(Cc2cccc(F)c2)S(=O)(=O)NC1c1ccc2ccccc2c1 (configuration not stated),-29%,-17%
CC(C)CNc1nc(Oc2ccc(OCC(N)=O)nn2)nc(N2CCOCC2)n1,-12%,-11%
CC(C)C1Cc2[nH]c(=S)[nH]c(=O)c2C(c2ccc(F)cc2)O1 (configuration not stated),-2%,i
O=C1NC2(CCc3ccccc3C2)C(=O)N1CCOc1cccc(Cl)c1 (configuration not stated),-1%,-11%

# Compound profiles (already shown). Order of screens: Vaccinia Venus	VACV mCherry inh
# Results for `CCOC(=O)C1=CN(Cc2cccc(F)c2)S(=O)(=O)NC1c1ccc2ccccc2c1` (configuration not stated) → -29%	-17%
# Results for `CCNC(=O)COc1ccc(-c2ccccc2)cc1` → -8%	-6%

# Following part.
SMILES,Vaccinia Venus,VACV mCherry inh
O=C(O)CSCC(=O)Nc1cccc(C(F)(F)F)c1,-6%,-7%
CC(=O)N1CCN(C(=O)CCc2cc(C(C)(C)C)c(O)c(C(C)(C)C)c2)CC1,-12%,-12%
COC(=O)c1[nH]nc(-c2ccccc2)c1-c1ccccc1,-12%,i
Cc1ccc(S(=O)(=O)N2CCN(C(=O)CCNC(=O)c3ccccc3Cl)CC2)cc1,-10%,-3%
COc1ccc(NC(=O)C2CCCN2S(=O)(=O)c2ccc3c(c2)CCC(=O)N3)cc1Cl (configuration not stated),-7%,-6%
COc1ccc(CCNCc2ccc(OCc3ccccc3)cc2)cc1,-5%,-11%
CCOC(=O)c1oc2ccc(S(=O)(=O)n3nc(-c4ccc(C)cc4)cc3N)cc2c1C,?,?
Cc1cc(=O)[nH]c(SCc2nc3ccccc3c(=O)n2-c2ccccc2C)n1,0%,0%
O=C(OCC(=O)N1CCN(C(=O)c2ccco2)CC1)c1cc(S(=O)(=O)Nc2ccc(Cl)cc2)ccc1O,-8%,-10%
COCCn1c(SCC(=O)Nc2ccccc2OC)nc2ccccc21,-3%,i
O=C(Cn1cnc2ccccc2c1=O)Nc1nnc(C2CC2)s1,-12%,i
Cc1nc(COC(=O)c2ccc(S(=O)(=O)N3CCCC3)cc2)cs1,-9%,-11%

# Overlap with the part before: 2 entries; new compounds follow.
SMILES,Vaccinia Venus,VACV mCherry inh
O=C(Cn1cnc2ccccc2c1=O)Nc1nnc(C2CC2)s1,-12%,i
Cc1nc(COC(=O)c2ccc(S(=O)(=O)N3CCCC3)cc2)cs1,-9%,-11%
CCCOC(=O)c1cc2c(cn1)[nH]c1ccccc12,-12%,i
Cc1c(Cc2ccccc2)c(=O)oc2cc(OCC(=O)NCc3ccccn3)ccc12,-25%,-15%
CCOC(=O)C1(CC2CC2)CCN(C(=O)c2cc(C)nc3ccc(CC)cc23)CC1,-14%,-3%
Cc1cccc(C(=O)OC(C)C(=O)N2CCc3ccccc3C2)c1C (configuration not stated),-20%,-6%
COc1ccc(-n2ncc3c(N4CCN(Cc5ccccc5)CC4)ncnc32)cc1,?,?
O=C(O)C/C=C(\NC(=O)OCc1ccccc1)C(=O)OCc1ccccc1,-2%,-14%
Cc1ccc(OCCCC(=O)Nc2nccs2)cc1,-16%,-21%
Cn1c(N)c(Sc2ccccc2[N+](=O)[O-])c(=O)n(C)c1=O,-11%,-14%
Fc1ccc(N2CCN(c3ncnc4c3nc3n4CCCC3)CC2)cc1,-21%,?
COc1cccc(-n2c(C)nc3ccccc3c2=O)c1,-16%,-17%
O=c1c2c(nc3cc(-c4ccccc4)[nH]n13)CCC2,-21%,.
O=C(COc1ccc(Cl)cc1)N1CCN(C/C=C/c2ccccc2)CC1,-11%,-24%
CCOC(=O)C1(Cc2ccccc2)CCCN(C2CCCC2)C1 (configuration not stated),?,?
COC(=O)c1ccccc1NC(=O)CSc1nnc(-c2cccnc2)n1C,-4%,-10%
CC1(C)NC(=S)C(C)(C)N1N=O,-4%,i
C=CCN(CC=C)Cc1cc(=O)oc2cc(OC)c(Cl)cc12,-7%,13%
COc1c(C)c2c(c(O)c1C/C=C(\C)CCC(=O)O)C(=O)OC2,-15%&-15%,4.5µM*
CCOc1ccc(NC(=O)N2CCC(NC(=O)C(Cc3cccc(F)c3)NC(C)=O)CC2)cc1 (configuration not stated),-2%,i
CNC(=O)CSc1nc(SC)ns1,-7%,-8%
O=C(Nc1nnc(SCC(=O)N2CCOCC2)s1)c1ccccc1,5%,6%
Cc1ccc(-n2c3nc(=O)n(C)c(=O)c-3cc3ccccc32)c(C)c1,-4%,-7%
Clc1ccc(-n2ncc3c(NCc4ccc5c(c4)OCO5)ncnc32)cc1,?,.
CCN(CC)C(=O)c1ccc(Oc2ccc([N+](=O)[O-])cc2Cl)cc1,-5%,-7%
COc1cc(NC(=O)C2CC(c3ccccc3O)=NO2)c(OC)cc1Cl (configuration not stated),-4%,i

# Assay outcomes (PubChem BioAssay)
